Marburg entry inh = qHTS for inhibitors of binding or entry into cells for Marburg Virus. Marburg virus pseudotyped entry inhibition, cell reporter; control for the full effect not named in the record; about a third of the inactives were read at about 46 µM. Potency, µM (top dose mostly 37.8 µM), for the others: at the highest dose activity change, negative = inhibition, actives largely listed as inhibitors. actives 1.8% (n = 300,000). AID 540276, 2011; active = well fitted inhibition curve with a large enough effect; inconclusive = small, poorly fitted or top-dose-only effect, or effect the other way; inactive = flat fitted curve, though single readings scatter; tested in HEK293 cells; about a fifth of its hits are not listed in these tables; note: % is set by controls: 0 for no effect and ±100 for the full control effect; luciferase read-out
NS1 function inh = qHTS Assay for Inhibitors of Influenza NS1 Protein Function; AID 2326, 2010; Potency, µM (titrated, usually from 46.1 µM), for inactives: top-dose activity, positive = more growth; S. cerevisiae slowed by influenza A NS1, growth recovery by OD600; actives 0.4% (n = 270,000); note: actives are rising curves; nearly all actives have a fitted effect of over 50% in size
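Read-out: OD600 growth recovery of NS1-expressing budding yeast. Cells grown overnight at 30C in -URA glucose medium, washed, resuspended and diluted 1:100 in 2% galactose assay medium, pH 6.0. Same strain lacking NS1 served as positive control.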
2A StopGo = High Throughput Screening for Foot and Mouth Disease Virus Antivirals; human cells with a luciferase reporter of 2A StopGo recoding; control for the full effect not named in the record; Potency, µM (series often up to 57.9 µM), for inactives: top-dose signal change, negative = less light; actives 1.2% (n = 410,000); active = well fitted falling curve with a large enough effect; inconclusive = small, poorly fitted or top-dose-only effect; inactive = no such curve, though single readings can be large or run the other way; tested in HEK293T cells; note: % is set by controls: 0 for no effect and ±100 for the full control effect; nearly all actives have a fitted effect of over 45% in size; luciferase light after 4 h
Cruzain Triton = qHTS Assay for Promiscuous and Specific Inhibitors of Cruzain (with detergent); Cruzipain (Trypanosoma cruzi), P25779; purified cruzain, Z-FR-AMC fluorescence, 0.01% Triton; Potency, µM, for the others: max response, negative = inhibition, actives largely listed as inhibitors; actives 0.43% (n = 200,000); active = well fitted curve in the direction sought with a large enough effect; inconclusive = small, poorly fitted or top-dose-only effect, or another doubt; inactive = no such curve, though single readings can be large; an effect the other way counts as inactive or inconclusive;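 note: plate controls were neutral wells for no effect and buffer without enzyme for full effect; nearly all actives have a fitted effect of over 40% in size; top concentration of the series not given in the record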
Target sequence (P25779 123-467 limits assumed): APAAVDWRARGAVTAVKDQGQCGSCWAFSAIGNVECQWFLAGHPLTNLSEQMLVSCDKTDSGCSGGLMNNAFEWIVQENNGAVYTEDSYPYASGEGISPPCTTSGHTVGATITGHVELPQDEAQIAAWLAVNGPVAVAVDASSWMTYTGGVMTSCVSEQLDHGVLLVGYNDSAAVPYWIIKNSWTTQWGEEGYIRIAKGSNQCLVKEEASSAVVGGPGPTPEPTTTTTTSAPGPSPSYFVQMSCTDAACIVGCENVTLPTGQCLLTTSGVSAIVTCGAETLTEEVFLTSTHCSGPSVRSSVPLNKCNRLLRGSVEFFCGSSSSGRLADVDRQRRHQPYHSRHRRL
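15 min RT preincubation of 1.5 nM cruzain with compound, then 2 uM Z-FR-AMC added; kinetic AMC fluorescence, 60 s delta. Triton X-100 0.01%, pH 5.5.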
Cruzain inh noDet = qHTS Assay for Promiscuous and Specific Inhibitors of Cruzain (without detergent); purified cruzain, Z-FR-AMC fluorescence, no detergent; Potency, µM, for inactives: max response, negative = inhibition, most hits filed as inhibitors; actives 2.3% (n = 200,000); AID 1476, 2009; active = well fitted curve in the direction sought with a large enough effect; inconclusive = small, poorly fitted or top-dose-only effect, or another doubt; inactive = no such curve, though single readings can be large; an effect the other way counts as inactive or inconclusive;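 note: plate controls were enzyme without inhibitor for no effect and buffer without enzyme for full effect; nearly all actives have a fitted effect of over 40% in size; top concentration of the series not given in the record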
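Purified cruzain at 1.5 nM, pre-incubated 15 min with compound at room temperature in 100 mM sodium acetate pH 5.5, 5 mM DTT, 0.00005% Triton X-100. Reaction started with 2 uM Z-FR-AMC; AMC fluorescence increase over 60 s gives rate.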
RE007 growth inh = qHTS Assay for Inhibitors of the HIV-1 protein Vpr; S. pombe RE007 Vpr strain, BacTiter-Glo ATP luminescence, 24 h; control for the full effect not named in the record; Potency, µM (titrated, usually from 92.2 µM), inactives show at the highest dose activity change, negative = less growth; actives 0.21% (n = 360,000); AID 651644, 2012; active = well fitted falling curve with a large enough effect; inconclusive = small, poorly fitted or top-dose-only effect; inactive = no such curve, though single readings can be large or run the other way;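 note: % is set by controls: 0 for no effect and ±100 for the full control effect; nearly all actives have a fitted effect of over 50% in size; the assay follows cell death caused by Vpr and the record does not say whether a fall means rescue or toxicity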
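Fission yeast strain RE007, carrying one chromosomally integrated HIV-1 vpr copy, was seeded at OD 0.01 in PMG+AL medium with 23 nL pinned compound. After 24 h at 30 °C and 99% humidity, viability was read by BacTiter-Glo luminescence.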
LASV entry inh = qHTS for Inhibitors of binding or entry into cells for Lassa Virus; Lassa virus pseudotype entry inhibition, cell reporter; control for the full effect not named in the record; actives 1.2% (n = 300,000); Potency, µM (titrated, usually from 37.9 µM), for the others: at the highest dose activity change, negative = inhibition, most hits filed as inhibitors; active means well fitted inhibition curve with a large enough effect; inconclusive means small, poorly fitted or top-dose-only effect, or effect the other way; inactive means flat fitted curve, though single readings scatter; tested in HEK293 cells; note: % is set by controls: 0 for no effect and ±100 for the full control effect; nearly all actives have a fitted effect of over 50% in size; luciferase read-out
SARS PLpro yeast = qHTS of Yeast-based Assay for SARS-CoV PLP | S. cerevisiae expressing SARS-CoV PLpro, growth rescue; control for the full effect not named in the record | actives 0.19% (n = 330,000) | Potency, µM (titrated, usually from 32.9 µM), for inactives: top-dose activity, positive = growth rescue | AID 485353, 2010; note: 0% is about no effect; nearly all actives have a fitted effect of over 55% in size; growth read by luminescence after 48 h
Starred values were filed as active, the others as inactive; u = inconclusive; x = no result given; [ ] = dose if it differs, or a comment. Unless noted, calls come from the whole dose curve; as a rule, active means well fitted rising curve with a large enough effect; inconclusive means small, poorly fitted or top-dose-only effect; inactive means no such curve, though single readings can be large or run the other way. Potency is the fitted concentration of half-maximal effect.

Each structure is followed by: Marburg entry inh	NS1 function inh	2A StopGo	Cruzain Triton	Cruzain inh noDet	RE007 growth inh	LASV entry inh	SARS PLpro yeast
COc1ccc(CNC(=O)CN(Cc2ccccc2Cl)C(=O)c2csnn2)cc1
 : 1.6%[46.1 µM]	1.8%	-3.9%	x	x	-13.4%	u	-1.1%
COc1ccccc1C(CCNS(=O)(=O)c1ccc(C)cc1)c1ccco1 (stereo not drawn)
 : -7.7%	-17.3%	18.2%	-6.8%	12.9%	15.0%	x	-43.4%
N=C1/C(=C\c2ccc(OC(=O)c3ccco3)cc2)C(=O)N=C2SC=NN12
 : 13.3%[46.1 µM]	x	46.1%[activator]	x	x	-14.2%	8.2%	1.9%
O=C(Cn1cnc2ccccc2c1=O)NCC(=O)N1CCOCC1
 : 20.0%[46.1 µM]	x	-13.1%	x	x	-5.5%	-4.5%	-4.8%
C=CCNC(=O)CSc1nnc(-c2cccs2)o1
 : -7.5%	-9.8%	9.7%	2.7%	0.8%	-12.5%	11.1%	-2.1%
CCc1ccc(NC(=O)Cn2c(=O)n(CCCCC(=O)NCCc3ccccc3)c(=O)c3ccccc32)cc1
 : -1.8%[46.1 µM]	x	-4.8%	-2.0%	-2.1%	x	11.8%[46.1 µM]	x
COC(=O)C1Cc2c([nH]c3ccccc23)C(C)N1 (stereo not drawn)
 : 15.0%	-5.7%	5.0%	-0.3%	-15.1%	3.2%	19.1%	-6.6%
O=S(=O)(c1cccs1)N1CN(C2CCCC2)c2nc3ccccc3nc21
 : -3.9%	-9.1%	22.7%	x	x	-0.6%	10.8%	0.1%
Cc1ccc(CN2CCSc3ccc(C(=O)N4CCN(c5ncccn5)CC4)cc32)cc1
 : u	-33.8%	-17.6%	-12.0%	3.9%	1.0%	u	-2.5%
Cc1ccc(CN2CC(C(=O)Nc3ccc(F)c([N+](=O)[O-])c3)CC2=O)cc1 (stereo not drawn)
 : u	-2.4%	-11.9%	x	x	15.7%	7.3%	-0.3%
COc1ccc(-n2ccnc2SCC(=O)Nc2ccc(OC)cc2OC)cc1
 : u	-118.4%	-4.7%	-5.7%	-9.5%	-1.1%	-12.3%	2.1%
CCc1ccc(-c2nn(CC(=O)NC3CCCCC3)c3c2cnc2ccc(OC)cc23)cc1
 : x	x	-8.5%	-1.2%	-6.4%	x	16.0%[46.1 µM]	x
S=C(N/N=C1\C2CN3CCN(C2)CC1(c1ccccc1)C3)Nc1ccccc1
 : -11.0%	16.7%	-12.7%	u	-2.5%	-4.2%	3.4%	-0.6%
CS(=O)(=O)N(Cc1ccccc1)c1ccc(C(=O)NN=C2CCCCCC2)cc1
 : -7.5%	u	-6.5%	-2.8%	22.6%	-0.1%	-16.1%	16.1%
COc1ccc(CCN2C(=O)CC(C(N)=O)SC2=Nc2ccc(F)cc2)cc1OC (stereo not drawn)
 : -5.6%[46.1 µM]	4.1%	-8.3%	x	x	67.3%	-6.5%[46.1 µM]	-2.3%
NNC(=O)c1cc(C2CC2)nc2ccc(Br)cc12
 : u	6.1%	-15.4%	x	x	-2.1%	-31.2%[46.1 µM]	-0.8%
NS(=O)(=O)c1ccc(-c2ccc(/C=N/NC(=O)c3ccc([N+](=O)[O-])cc3)o2)cc1
 : x	-0.8%	-15.0%	x	x	16.2%	x	0.5%
COc1ccc(C2C3=C(NCCN=C3c3ccccc3)C(=O)N2c2ccccc2)c(OC)c1 (stereo not drawn)
 : -15.2%[46.1 µM]	x	-0.7%	x	x	5.8%	5.6%[46.1 µM]	-2.4%
CCc1nc2ccc(C(=O)N3CCN(c4cccc(Cl)c4)CC3)cc2nc1CC
 : x	2.8%	u	-7.4%	u	19.0%	5.1%[46.1 µM]	-7.0%
CN1CCN(c2oc(/C=C/c3ccccc3)nc2C#N)CC1
 : 13.7%	0.9%	-8.3%	x	x	2.2%	23.5%	0.0%

Sorted by length of the SMILES (falling): part of the list above
Each structure is followed by: Marburg entry inh	NS1 function inh	2A StopGo	Cruzain Triton	Cruzain inh noDet	RE007 growth inh	LASV entry inh	SARS PLpro yeast
NS(=O)(=O)c1ccc(-c2ccc(/C=N/NC(=O)c3ccc([N+](=O)[O-])cc3)o2)cc1
 : x	-0.8%	-15.0%	x	x	16.2%	x	0.5%
COc1ccc(C2C3=C(NCCN=C3c3ccccc3)C(=O)N2c2ccccc2)c(OC)c1 (stereo not drawn)
 : -15.2%[46.1 µM]	x	-0.7%	x	x	5.8%	5.6%[46.1 µM]	-2.4%
CCc1ccc(-c2nn(CC(=O)NC3CCCCC3)c3c2cnc2ccc(OC)cc23)cc1
 : x	x	-8.5%	-1.2%	-6.4%	x	16.0%[46.1 µM]	x
Cc1ccc(CN2CCSc3ccc(C(=O)N4CCN(c5ncccn5)CC4)cc32)cc1
 : u	-33.8%	-17.6%	-12.0%	3.9%	1.0%	u	-2.5%
CS(=O)(=O)N(Cc1ccccc1)c1ccc(C(=O)NN=C2CCCCCC2)cc1
 : -7.5%	u	-6.5%	-2.8%	22.6%	-0.1%	-16.1%	16.1%
S=C(N/N=C1\C2CN3CCN(C2)CC1(c1ccccc1)C3)Nc1ccccc1
 : -11.0%	16.7%	-12.7%	u	-2.5%	-4.2%	3.4%	-0.6%
CCc1nc2ccc(C(=O)N3CCN(c4cccc(Cl)c4)CC3)cc2nc1CC
 : x	2.8%	u	-7.4%	u	19.0%	5.1%[46.1 µM]	-7.0%
O=S(=O)(c1cccs1)N1CN(C2CCCC2)c2nc3ccccc3nc21
 : -3.9%	-9.1%	22.7%	x	x	-0.6%	10.8%	0.1%
COc1ccc(-n2ccnc2SCC(=O)Nc2ccc(OC)cc2OC)cc1
 : u	-118.4%	-4.7%	-5.7%	-9.5%	-1.1%	-12.3%	2.1%
CN1CCN(c2oc(/C=C/c3ccccc3)nc2C#N)CC1
 : 13.7%	0.9%	-8.3%	x	x	2.2%	23.5%	0.0%
COC(=O)C1Cc2c([nH]c3ccccc23)C(C)N1 (stereo not drawn)
 : 15.0%	-5.7%	5.0%	-0.3%	-15.1%	3.2%	19.1%	-6.6%
NNC(=O)c1cc(C2CC2)nc2ccc(Br)cc12
 : u	6.1%	-15.4%	x	x	-2.1%	-31.2%[46.1 µM]	-0.8%
C=CCNC(=O)CSc1nnc(-c2cccs2)o1
 : -7.5%	-9.8%	9.7%	2.7%	0.8%	-12.5%	11.1%	-2.1%

Further entries
Each structure is followed by: Marburg entry inh	NS1 function inh	2A StopGo	Cruzain Triton	Cruzain inh noDet	RE007 growth inh	LASV entry inh	SARS PLpro yeast
Cc1cc(C)c(OCCN2CC(C)OC(C)C2)c(Br)c1 (stereo not drawn)
 : -24.5%[46.1 µM]	-9.3%	-12.7%	x	x	-10.1%	u	0.7%
Cc1cnn(-c2cc(N/N=C/c3ccccc3)ncn2)c1
 : 2.6%	2.3%	30.4%[activator]	2.5%	-25.1%	13.1%	-14.2%	0.5%
CCN(CC)C(=O)CSc1nnc(-c2cnccn2)n1-c1ccc(C)cc1
 : u	3.2%	13.1%	2.7%	6.6%	-0.6%	1.2%	-0.1%
COc1cccc(-c2nnc(SCc3nc4ccccc4s3)n2C)c1
 : u	1.4%	24.4%	1.6%	-4.3%	31.0%	2.7%	0.6%
C=CCN1CN(S(=O)(=O)c2cccs2)c2nc3ccccc3nc21
 : 9.2%	-30.1%	38.6%[activator]	-7.2%	-8.0%	-6.6%	2.6%	-0.4%
COC(=O)c1ccccc1NC(=O)CSc1nc(Nc2ccccc2)nc(N2CCOCC2)n1
 : x	u	-16.5%	x	x	-6.6%	x	0.8%
OC(COc1ccccc1)CN1CCN(C(c2ccccc2)c2ccccc2)CC1 (stereo not drawn)
 : x	-12.5%	-29.4%	x	x	-14.4%	x	12.2%
O=C(NCc1csc(-c2cccs2)n1)c1ccsc1
 : 8.8%[46.1 µM]	-34.7%	-5.2%	x	x	29.3%	8.1%[46.1 µM]	-1.3%

High-throughput results from PubChem.
